Source: PubChem
TRPML1 inh = blocks the human TRPML1 channel; TRPML1-inducible cells, Ca2+ dye fluorescence, FDSS; hits give low values; inhibition of EC80 agonist-evoked calcium signal; actives 0.02% (n = 390,000); activity change, negative = inhibition, % (no concentration beside the values); Q9GZU1; in the data active means activity change below about -50%; inconclusive means about -30% to -50%; inactive means above about -30%;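 also: stimulus is agonist 54-4 at its EC80 concentration; % is scaled to controls: 0 for no effect and ±100 for the full control effect; compound concentration not given in the record; the text of the record puts the active cut at -80%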
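TRPML1-DL cells, Tet-induced overnight (~16 h, 37 °C) at 1,500 cells/well, were loaded with Ca8 no-wash dye plus quencher for 45-90 min at room temperature. Compounds were pinned during FDSS kinetic reading; agonist 54-4 at EC80 (4 uM final) then added.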
Six1-Eya2 blk = blocks human Six1 binding to Eya2; Q15475+O00167; AlphaScreen GST-Six1/His-Eya2 binding, biochemical; hits give low values; control for the full effect not named in the record; activity change, % (concentration not given with the values); actives 0.56% (n = 360,000); AID 651725; in the data active = activity change below about -65%; inconclusive = about -30% to -65%; inactive = above about -30%; also: % is scaled to controls: 0 for no effect and ±100 for the full control effect
Target sequence (O00167 whole entry, looked up): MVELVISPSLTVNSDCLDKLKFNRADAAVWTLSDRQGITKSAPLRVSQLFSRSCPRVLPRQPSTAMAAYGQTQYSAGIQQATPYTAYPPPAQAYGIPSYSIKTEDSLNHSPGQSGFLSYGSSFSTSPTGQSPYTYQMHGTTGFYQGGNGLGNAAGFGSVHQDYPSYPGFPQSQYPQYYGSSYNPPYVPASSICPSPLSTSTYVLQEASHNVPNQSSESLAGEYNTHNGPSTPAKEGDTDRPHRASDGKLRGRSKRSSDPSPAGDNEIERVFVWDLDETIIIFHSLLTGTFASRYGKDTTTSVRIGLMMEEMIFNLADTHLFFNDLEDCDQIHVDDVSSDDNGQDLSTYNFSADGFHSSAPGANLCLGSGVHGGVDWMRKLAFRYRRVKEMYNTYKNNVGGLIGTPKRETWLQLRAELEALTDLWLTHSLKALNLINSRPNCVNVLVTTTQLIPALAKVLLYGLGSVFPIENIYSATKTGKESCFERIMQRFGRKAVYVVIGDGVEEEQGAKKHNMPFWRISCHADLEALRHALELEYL
Target sequence (Q15475 whole entry, looked up): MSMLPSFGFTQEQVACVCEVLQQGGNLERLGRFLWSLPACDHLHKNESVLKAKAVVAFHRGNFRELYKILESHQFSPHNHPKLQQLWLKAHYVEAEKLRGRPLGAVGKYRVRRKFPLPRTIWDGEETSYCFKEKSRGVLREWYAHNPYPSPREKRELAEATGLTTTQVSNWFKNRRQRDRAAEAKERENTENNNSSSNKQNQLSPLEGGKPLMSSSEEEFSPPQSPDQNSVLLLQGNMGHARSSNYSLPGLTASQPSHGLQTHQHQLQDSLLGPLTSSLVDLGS
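Six1/Eya2 binding was read as AlphaScreen signal after compounds were pinned into GST-Six1 plus His-tagged Eya2 (5X stock 250/500 nM) in pH 8.0 Tris/NaCl/TCEP buffer, beads added, then incubated 1 h, 37 C, dark.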
TRPML1 agonist = activates the human TRPML1 channel | activation, % (no concentration beside the values) | TRPML1-expressing cells, Ca2+ dye fluorescence, FDSS; host cell line not named in the record; reference of the full effect not given here | Q9GZU1 | actives 0.12% (n = 410,000); in the data active = activation above about 50%; inconclusive = about 30% to 50%; inactive = below about 30%; also: 0% is about no effect; the text of the record puts the active cut at 80%
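Kinetic FDSS Ca2+ read in Tet-induced TRPML1-DL cells (ABD Ca8 dye plus quencher, 45-90 min RT loading): baseline, then compound, then 110 s agonist window; EC80 agonist 54-4 at 4uM final added afterwards for a 110 s antagonist window.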
CtBP-E1A inh = CtBP/E1A binding inhibition; AlphaScreen GST-E1A/His-CtBP binding, 1536-well; hits give low values; control for the full effect not named in the record; activity change, % (test concentration not listed); actives 0.49% (n = 340,000); AID 651724; in the data active means activity change below about -65%; inconclusive means about -30% to -65%; inactive means above about -30%; also: % is scaled to controls: 0 for no effect and ±100 for the full control effect; compound concentration not given in the record
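Steps: dispense buffer (Tris pH 8.0, NaCl 300 mM, TCEP 1 mM, BSA, Tween 20); add 5X protein mix (GST-E1A, His-CtBP, 125 nM each); pin 23 nL compound; 2 h at 37 °C, dark; add 5X beads (50 ug/mL); 1 h; read.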
PINK1 modulator = modulators of PINK1 expression; PINK1 immunofluorescence, high-content cytometry, 24 h; AID 624263; actives 0.2% (n = 410,000); Potency, µM (series often up to 76.6 µM), for inactives: at the top dose activation (PINK1 increase), actives largely listed as activators; active = well fitted activation curve with a large enough effect; inconclusive = small, poorly fitted or top-dose-only effect; inactive = flat fitted curve, though single readings scatter; cell line not stated here;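 also: potency is read from the fitted curve at half-maximal effect; % of control where 0% means no effect; nearly all actives have a fitted effect of over 65% in size; a mitochondrial uncoupler was the plate control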
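Fluorescence from anti-PINK1 antibody, together with nuclear and cell stains, was scanned on a laser-scanning cytometer. Before staining, stable-line cells were incubated 24 hours with compounds at 5 concentrations; primary antibody 12 h at 10 degrees C.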
D2 ag = activates the human D2 dopamine receptor; P14416; DiscoveRx PathHunter D2 beta-arrestin, luminescence, 90 min; 100% = 57 uM dopamine signal; activation, % (no concentration beside the values); actives 0.084% (n = 360,000); in the data active = activation above about 40%; inconclusive = about 15% to 40%; inactive = below about 15%; also: compound concentration not given in the record; the text of the record calls up to 30% inactive
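Agonist mode: compounds alone added to overnight-plated D2 PathHunter cells for 90 min at 37 C, with 57 uM final dopamine (EC100) defining full response. Beta-arrestin recruitment detected by chemiluminescent reagent, read after 1 h at ambient temperature.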
* = called active by the depositor; & = joins results of further samples; [ ] = dose if it differs, or a comment.

How did CCOC(=O)c1sc(NC(=O)CC)c(C#N)c1C do in these assays?
TRPML1 inh: -6.4; Six1-Eya2 blk: 7.7; TRPML1 agonist: -0.4; CtBP-E1A inh: 7.0; PINK1 modulator: 4.8%; D2 ag: 0.0

How did Cc1ccc(C)c(OCCNc2ncccc2[N+](=O)[O-])c1 do in these assays?
Six1-Eya2 blk: -2.0; PINK1 modulator: -0.6%; D2 ag: -0.9

How did COc1cc(NS(=O)(=O)c2ccc3[nH]c(=O)[nH]c3c2)cc(OC)c1 do in these assays?
TRPML1 inh: 11.5&0.1; Six1-Eya2 blk: -4.7; TRPML1 agonist: 0.8&-0.2; CtBP-E1A inh: -3.9; PINK1 modulator: 0.3%&0.7%; D2 ag: -4.3

How did CC(C)n1cc2c(N)ncnc2n1 do in these assays?
TRPML1 inh: -13.5; Six1-Eya2 blk: 0.2; TRPML1 agonist: 0.4; CtBP-E1A inh: -2.4; PINK1 modulator: 0.8%; D2 ag: -0.6

Results for CCCc1cc2c(cc1NS(=O)(=O)c1ccc(CCNC(C)=O)cc1)OCO2 ?
TRPML1 inh: -3.0; Six1-Eya2 blk: -1.2; TRPML1 agonist: -0.2; CtBP-E1A inh: -1.0; PINK1 modulator: -0.4%; D2 ag: -1.0

What do the screens show for `CCN1CCN(CCC(=O)Nc2cc(OC)cc(OC)c2)CC1`?
TRPML1 inh: 10.6; Six1-Eya2 blk: 6.2; TRPML1 agonist: -0.7; CtBP-E1A inh: -0.6; PINK1 modulator: -0.6%; D2 ag: 2.0

What do the screens show for `Cc1ccc(C(=O)Nc2ccccc2-c2ccccc2)cc1[N+](=O)[O-]`?
TRPML1 inh: 8.2; Six1-Eya2 blk: -6.4; TRPML1 agonist: 1.5; CtBP-E1A inh: -8.4; PINK1 modulator: 16.8%[38.3 µM]; D2 ag: -3.8

Results for COc1cccc(NC(=S)N2CCN(S(C)(=O)=O)CC2)c1 ?
TRPML1 inh: 2.4; Six1-Eya2 blk: 6.1; TRPML1 agonist: -0.4; CtBP-E1A inh: -0.9; PINK1 modulator: -0.7%; D2 ag: -2.3

What do the screens show for `COCCNC(=O)C12CC3CC(CC(Cl)(C3)C1)C2`?
TRPML1 inh: -5.7; Six1-Eya2 blk: 5.6; TRPML1 agonist: 0.3; CtBP-E1A inh: 0.0; PINK1 modulator: 0.4%; D2 ag: -1.7

What do the screens show for `C[n+]1cccc(NC(=O)c2ccccc2)c1`?
Six1-Eya2 blk: -1.5; TRPML1 agonist: -0.7; CtBP-E1A inh: 1.7; PINK1 modulator: -0.6%

Results for CC(=O)NS(=O)(=O)c1ccc(NS(=O)(=O)c2ccc3ccccc3c2)cc1 ?
TRPML1 inh: -13.7; Six1-Eya2 blk: 6.5; TRPML1 agonist: -1.1; CtBP-E1A inh: 5.2; PINK1 modulator: -0.2%; D2 ag: -2.0

How did CCCc1nc2ccccc2c(C(=O)OCC(=O)NCc2ccc3c(c2)OCO3)c1CC do in these assays?
TRPML1 inh: -7.8; Six1-Eya2 blk: 0.2; TRPML1 agonist: 4.7; CtBP-E1A inh: -11.6; PINK1 modulator: 0.4%; D2 ag: -2.6

How did CCOC(=O)COc1c(OC)cc(Cl)cc1C1Nc2ccccc2C(=O)N1c1ccccc1 (stereo unspecified) do in these assays?
TRPML1 inh: 2.7; Six1-Eya2 blk: 1.3; TRPML1 agonist: 0.4; CtBP-E1A inh: 12.0; PINK1 modulator: 1.9%[38.3 µM]; D2 ag: -3.7

What do the screens show for `COc1ccc(Cl)cc1-n1c(=S)sc2c(=O)[nH]c(SCC(=O)NCC3CCCO3)nc21` (stereo unspecified)?
TRPML1 inh: -7.4; Six1-Eya2 blk: -14.3; TRPML1 agonist: 0.2; CtBP-E1A inh: -26.6; PINK1 modulator: 4.9%[38.3 µM]; D2 ag: -3.8

How did O=C(CSc1ncccn1)N1CCN(S(=O)(=O)c2ccccc2)CC1 do in these assays?
TRPML1 inh: 3.0; Six1-Eya2 blk: 2.4; TRPML1 agonist: -0.4; CtBP-E1A inh: -14.9; PINK1 modulator: 2.6%; D2 ag: -2.5

Results for Cc1ccc(CCNc2ccccc2C)cn1 ?
TRPML1 inh: -6.1; Six1-Eya2 blk: 0.8; TRPML1 agonist: 1.0; CtBP-E1A inh: -3.3; PINK1 modulator: 4.9%; D2 ag: -1.6

What do the screens show for `COc1ccc(NC(=O)COC(=O)CCc2cc(OC)c(OC)c(OC)c2)c([N+](=O)[O-])c1`?
TRPML1 inh: -2.7; Six1-Eya2 blk: -21.9; TRPML1 agonist: 4.2; CtBP-E1A inh: -2.1; PINK1 modulator: 16.4%; D2 ag: 2.7

Results for Cc1[nH]c2ccccc2c1C(=O)CN1C(=O)C(=O)N(Cc2ccco2)C1=O ?
TRPML1 inh: 13.5; Six1-Eya2 blk: -26.8; TRPML1 agonist: 0.0; CtBP-E1A inh: 6.9; PINK1 modulator: 1.8%; D2 ag: -2.3

How did COc1ccc(Cl)cc1NC(=O)CSc1nc2ccsc2c(=O)n1CC1CCC(C(=O)O)CC1 (stereo unspecified) do in these assays?
TRPML1 inh: -6.4; Six1-Eya2 blk: -4.5; TRPML1 agonist: 0.5; PINK1 modulator: 0.9%; D2 ag: 2.6

How did OC(c1ccccc1)c1nc(-c2cccc(C(F)(F)F)c2)cs1 (stereo unspecified) do in these assays?
Six1-Eya2 blk: 11.4; TRPML1 agonist: -0.2; CtBP-E1A inh: 16.2; PINK1 modulator: 6.1%; D2 ag: 8.3

What do the screens show for `O=C(CC1N=C2c3ccccc3N=C(SCC(=O)Nc3cccc(Cl)c3)N2C1=O)NCc1cccs1` (stereo unspecified)?
TRPML1 inh: -13.4; TRPML1 agonist: 1.2; PINK1 modulator: 1.0%

What do the screens show for `Cn1c(=O)n(C)c2cc(NC(=O)CCc3ccccc3)c(Br)cc21`?
TRPML1 inh: -2.5; Six1-Eya2 blk: -1.2; TRPML1 agonist: 0.9; CtBP-E1A inh: 10.8; PINK1 modulator: 3.7%; D2 ag: -2.2

Results for O=C1OCc2cc(NC(=O)C34CC5CC(CC(C5)C3)C4)ccc21 ?
TRPML1 inh: -1.6; Six1-Eya2 blk: 0.5; TRPML1 agonist: 0.3; CtBP-E1A inh: 1.9; PINK1 modulator: -1.1%; D2 ag: 1.7

How did O=C1CC(c2ccccc2)Cc2nc3nc(C(F)(F)F)nn3cc21 (stereo unspecified) do in these assays?
TRPML1 inh: 14.6; Six1-Eya2 blk: -1.0; TRPML1 agonist: 0.0; CtBP-E1A inh: 2.6; PINK1 modulator: inconclusive; D2 ag: -1.0

How did O=C(COC(=O)c1cccnc1Cl)Nc1ccc2c(c1)OCCO2 do in these assays?
TRPML1 inh: -5.8; Six1-Eya2 blk: -0.9; TRPML1 agonist: -0.6; CtBP-E1A inh: 0.4; PINK1 modulator: 5.6%; D2 ag: -2.9

What do the screens show for `CCOC(=O)C1(C)C=C(Nc2cccc(OC)c2)C(=O)N1c1ccccc1` (stereo unspecified)?
TRPML1 inh: -17.4; Six1-Eya2 blk: 0.5; TRPML1 agonist: 0.3; CtBP-E1A inh: 0.1; PINK1 modulator: 2.4%; D2 ag: 1.1

Results for CC(C)(C)c1cc(OS(C)(=O)=O)ccc1O ?
TRPML1 inh: 13.9; Six1-Eya2 blk: -8.4; TRPML1 agonist: 2.1; PINK1 modulator: 0.1%; D2 ag: 11.1

How did CCOC(=O)c1cccc(NC(=O)C2=C(C)C(=O)OC23CCCCC3)c1 do in these assays?
TRPML1 inh: -4.6; TRPML1 agonist: 0.4; PINK1 modulator: 0.5%

What do the screens show for `O=C(CC(C(=O)O)C1CCCO1)NCc1ccccc1` (stereo unspecified)?
TRPML1 inh: -12.0; Six1-Eya2 blk: -0.9; TRPML1 agonist: -0.8; CtBP-E1A inh: 7.5; PINK1 modulator: -0.2%; D2 ag: -4.6

How did Cc1cccc(NC(=O)c2oc3ccccc3c2NC(=O)c2cc(=O)c3ccc(C)cc3o2)c1 do in these assays?
TRPML1 inh: -10.1; TRPML1 agonist: 1.8; PINK1 modulator: 2.3%

What do the screens show for `Cc1cc(Cl)ccc1OCC(=O)OCC(=O)N1CCC(C(N)=O)CC1`?
TRPML1 inh: 2.7; Six1-Eya2 blk: -1.5; TRPML1 agonist: -0.1; CtBP-E1A inh: 1.9; PINK1 modulator: -1.1%; D2 ag: -0.9

Results for O=C(NCc1ccccc1C(F)(F)F)C1CCC(=O)N(C2CC2)C1 (stereo unspecified) ?
TRPML1 inh: -10.3; Six1-Eya2 blk: 11.8; TRPML1 agonist: -1.3; PINK1 modulator: -0.4%; D2 ag: -6.1

What do the screens show for `Cc1cc(-c2nnc3n2N=C(c2ccc(F)cc2)CS3)n[nH]1`?
TRPML1 inh: -1.1; Six1-Eya2 blk: inconclusive; TRPML1 agonist: 1.1; CtBP-E1A inh: inconclusive; PINK1 modulator: 0.1%; D2 ag: -2.1

Results for Cc1nn(-c2ccccc2)c(C)c1/C=N/NC(=O)CSc1nnc(SCc2ccccc2Cl)s1 ?
TRPML1 inh: -8.5; Six1-Eya2 blk: -8.5; TRPML1 agonist: 2.2; CtBP-E1A inh: -13.0; PINK1 modulator: -0.2%; D2 ag: 1.7

Results for CCOC(=O)N1CCN(C(=O)c2ccc(S(=O)(=O)c3ccc(C)cc3)c(NC(C)=O)c2)CC1 ?
TRPML1 inh: 1.5; Six1-Eya2 blk: 2.0; TRPML1 agonist: -0.7; CtBP-E1A inh: 0.3; PINK1 modulator: 3.0%; D2 ag: 0.2

How did COc1ccccc1NC(=S)NC(=O)C1CC1 do in these assays?
TRPML1 inh: -14.9; Six1-Eya2 blk: -12.8; TRPML1 agonist: 2.9; CtBP-E1A inh: -9.1; PINK1 modulator: 2.0%; D2 ag: -4.1

How did O=C(Cn1c(NCCCCl)nc2ccccc21)c1ccccc1 do in these assays?
TRPML1 inh: 5.3; Six1-Eya2 blk: 5.5; TRPML1 agonist: -0.1; CtBP-E1A inh: 5.8; PINK1 modulator: 0.0%; D2 ag: -2.8

Results for O=C(c1c(F)cccc1F)N(Cc1cccs1)C1CCCC1 ?
TRPML1 inh: -10.5; Six1-Eya2 blk: 6.6; TRPML1 agonist: 1.6; CtBP-E1A inh: 0.3; PINK1 modulator: -0.5%; D2 ag: -2.2

How did CCOC(=O)N1CCN(c2c(N3CCc4ccccc4C3)c(=O)c2=O)CC1 do in these assays?
TRPML1 inh: 7.3; Six1-Eya2 blk: -20.3; TRPML1 agonist: -1.0; CtBP-E1A inh: -7.2; PINK1 modulator: 0.1%; D2 ag: -2.5

How did O=C(O)c1ccc(/C=N/NC(=S)NC2CCCCC2)cc1 do in these assays?
TRPML1 inh: 22.9; Six1-Eya2 blk: 11.6; TRPML1 agonist: -0.6; CtBP-E1A inh: 0.2; PINK1 modulator: 3.2%; D2 ag: 2.9
